HNF4A DNA FP = change in binding of human HNF4A to DNA, primary screen, biochemical, fluorescence polarization, FITC-DNA; Hepatocyte nuclear factor 4-alpha (Homo sapiens), P41235; AID 1224865, 2016; activity change, % at 10 µM; 1 h; 0.3% of 360,000 active; in the data active = activity change above about 30%, passing the limit was not always enough;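 also: controls were the assay level and a saturating level of protein; the project sought stronger binding though the title names inhibitors; some compounds called inactive have numbers as strong as hits; positive values seem to mean higher polarization but the record does not say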
E coli growth = E. coli growth inhibition, primary screen, OD600 | Escherichia coli growth, 23 h; stronger effect = lower value | OD600 absorbance (test concentration not listed) | 0.21% of 330,000 active;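 active = OD600 absorbance below the run mean of sample wells minus 3.6 SD, in any replicate, cut at about 0.56 in these data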;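 also: stock transfer was 300 nL into about 60 µL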
rRNA inh HTS = reduced GFP signal of wild-type E. coli, primary screen, bacterial rRNA inhibitor project, GFP/RFP fluorescence, OD600, single point. E. coli WT GFP vs humanized-ribosome RFP mutants, 24 h; stronger effect = lower value; DMSO median 0, no signal -100. GFP signal change (wild-type ribosome), % (concentration not given with the values). 1.6% of 350,000 active;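 active = significant combined selectivity score with lowered wild-type GFP, culture density cut under 30%, mutant RFP and density less affected; inactive = any of these conditions unmet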; also: one replicate is shown; some compounds called inactive have numbers as strong as hits
AF4-AF9 inh = inhibitors of AF4 peptide binding to AF9, primary screen, biochemical, AlphaScreen, biotin-AF4 peptide, FLAG-AF9, single point; Protein AF-9 (Homo sapiens), P42568; inhibition, % at 10 µM; 0.47% of 350,000 active; AID 651704, 2012;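 active = every replicate reaching a set inhibition limit, whatever the replicate mean, cut at about 25% in these data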;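 also: 0% = plate neutral control median and 100% = total signal loss; the record names both 10 and 1 µM as test concentration; the first replicate is given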
Target sequence (P42568 whole entry, looked up): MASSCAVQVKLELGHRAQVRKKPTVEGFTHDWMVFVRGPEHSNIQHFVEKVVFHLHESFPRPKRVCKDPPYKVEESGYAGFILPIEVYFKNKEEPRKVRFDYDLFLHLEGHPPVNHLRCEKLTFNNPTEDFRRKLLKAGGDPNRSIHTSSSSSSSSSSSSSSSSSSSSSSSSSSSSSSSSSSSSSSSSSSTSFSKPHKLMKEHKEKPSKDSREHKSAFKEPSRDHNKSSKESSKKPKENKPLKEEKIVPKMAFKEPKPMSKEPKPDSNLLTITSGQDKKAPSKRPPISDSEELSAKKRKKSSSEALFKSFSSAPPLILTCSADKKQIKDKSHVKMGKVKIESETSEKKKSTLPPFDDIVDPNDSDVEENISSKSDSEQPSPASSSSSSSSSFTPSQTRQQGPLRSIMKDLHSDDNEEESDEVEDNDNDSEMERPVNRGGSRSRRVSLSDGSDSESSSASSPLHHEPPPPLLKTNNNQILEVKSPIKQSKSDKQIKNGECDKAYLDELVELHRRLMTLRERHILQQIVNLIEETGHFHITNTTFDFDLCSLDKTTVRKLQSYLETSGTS
FGF22 binding = binders of human FGF22 protein, primary screen, FGF22 synaptogenesis inhibitor project, biophysical, thermal shift, single point; recombinant FGF22 thermal shift, SYPRO orange fluorescence; percent of sucrose octasulfate shift, DMSO zero; calls only at 9.99 µM; 1.5% of 340,000 active; AID 651658, 2012;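 active = melting point raised past a set limit in the mean and every replicate; three in four hits are not shown here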
Target sequence (Q9HCT0 whole entry, looked up): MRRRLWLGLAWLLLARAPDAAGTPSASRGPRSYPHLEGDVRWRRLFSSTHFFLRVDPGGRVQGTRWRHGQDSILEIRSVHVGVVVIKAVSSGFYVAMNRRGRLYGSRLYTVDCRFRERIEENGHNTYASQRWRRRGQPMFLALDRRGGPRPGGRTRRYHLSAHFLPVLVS
Vif TR-FRET = inhibitors of Vif binding to APOBEC3G peptide, primary screen, biochemical, TR-FRET, GST-Vif 1-94, biotin-A3G peptide, dose response retest (AID 1117319); inhibition, %, or IC50 in µM where a hit was titrated; Virion infectivity factor (Human immunodeficiency virus type 1 group M subtype B (isolate …; TR-FRET GST-Vif / biotin-A3G peptide binding; higher % means a stronger effect; test concentration not given here; strong numbers were not always called active; 0.57% of 260,000 active;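 active = above the screen mean plus three standard deviations and confirmed in dose response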;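 also: Vif residues 1-94 fused to GST binding biotinylated APOBEC3G peptide 110-148; 0% = full assay without inhibitor and 100% = GST in place of GST-Vif; retest series ran down from 100 µM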
ALR H2O2 inh = inhibitors of human ALR sulfhydryl oxidase, primary screen, biochemical, H2O2 detection, HRP-luminol luminescence, single point | 3.8% of 290,000 active | inhibition, % (test concentration not listed) | purified ALR, DTT oxidation | FAD-linked sulfhydryl oxidase ALR (Homo sapiens), P55789;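 active = mean and each replicate at 75% or more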;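 also: stock transfer was 7.5 nL into about 7.5 µL; 0% = neutral wells and 100% = wells with inactivated enzyme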
Target sequence (P55789 whole entry, looked up): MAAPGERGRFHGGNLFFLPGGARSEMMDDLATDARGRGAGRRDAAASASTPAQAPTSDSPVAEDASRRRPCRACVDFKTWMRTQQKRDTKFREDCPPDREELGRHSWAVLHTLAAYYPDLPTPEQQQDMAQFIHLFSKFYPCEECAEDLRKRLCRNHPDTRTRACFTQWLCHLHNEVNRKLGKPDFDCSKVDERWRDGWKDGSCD
rRNA inh HTS OD600 = also measured in rRNA inh HTS; calls as there; OD600 change, %; measured here: OD600 growth;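 optical density of the mix in the first replicate; 0 = DMSO median and -100 = no signal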
rRNA inh HTS RFP = recorded beside rRNA inh HTS, whose call it bears; RFP signal change, %; measured here: RFP humanized mutant strains;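 first replicate; 0 = DMSO median and -100 = no signal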
Numbers without * were called inactive; i = inactive; x = not tested or not shown; & = joins results of further samples. Not all compounds are listed (hit frequency here may not be typical).

SMILES | HNF4A DNA FP | E coli growth | rRNA inh HTS | rRNA inh HTS OD600 | rRNA inh HTS RFP | AF4-AF9 inh | FGF22 binding | Vif TR-FRET | ALR H2O2 inh
O=C(O)/C=C/C(=O)NC1CCS(=O)(=O)C1 (stereo not drawn) | 1.1 | 0.708 | x | x | x | x | x | -2.8% | -1.9
O=C(NCC(=O)N1CCN(S(=O)(=O)c2ccccc2)CC1)c1ccc(Br)o1 | 0.4 | 0.692 | 7.2 | 0.9 | 1.2 | -1.8 | i | -4.9% | x
Cc1ccc(NC(=S)N2CCc3[nH]c4ccccc4c3C2)cc1 | 1.3 | 0.703 | -48.3 | -67.7 | -8.1 | -2.5 | i | -7.4% | -5.5
Cn1c(CN2CCN(c3cccc(Cl)c3)CC2)nc2ccccc21 | 1.3 | 0.668 | x | x | x | x | x | 3.2% | 2.2
Fc1ccc(-c2n[nH]c(=S)n2/N=C/c2c[nH]c3ccccc23)cc1 | 1.8 | x | 1.5 | -10.8 | 4.2 | -0.4 | i | -5.3% | 40.0
COc1ccccc1C(CNC(=O)c1cc(C)nc2ccccc12)N(C)C (stereo not drawn) | -7.1 | 0.662 | 4.9 | 15.2 | 1.2 | 1.6 | i | x | -3.9
O=C(COC(=O)/C=C/c1ccccc1Cl)NCc1ccccc1 | -2.3 | 0.698 | x | x | x | x | x | 7.3% | -9.7
CC(C)NC(=O)N(C)C[C@H]1Oc2cc(-c3ccncc3)ccc2S(=O)(=O)N([C@@H](C)CO)C[C@@H]1C | x | x | 6.9 | 5.0 | 0.7 | -2.9 | i | x | x
Clc1ccc(CSc2nnnn2-c2ccc3c(c2)OCO3)c(Cl)c1 | 0.0 | 0.773 | x | x | x | x | x | 8.3% | -14.4
Cc1ccc(NC(=O)N2C3CCCC2CC(NC(=O)C2CC2)C3)cc1 (stereo not drawn) | -1.6 | 0.657 | 14.0 | 10.9 | -1.0 | -3.9 | i | -4.6% | -8.1
COCc1cc(C)nc(N2CCc3ccccc32)c1C#N | -1.0 | 0.711 | x | x | x | x | x | 6.0% | -10.5
O=C(O)c1ccn2c(C(=O)c3ccc(Cl)cc3)c(-c3ccccc3)cc2c1 | 1.3 | x | -54.5 | -50.5 | -17.4 | -1.2 | i | 1.1% | x
COc1ccc(CN(C)C[C@H]2Oc3c(NS(=O)(=O)c4ccc(Cl)cc4)cccc3C(=O)N([C@H](C)CO)C[C@H]2C)cc1 | x | x | -4.6 | -8.1 | 2.6 | 3.8 | i | x | x
Nc1ccc(C(=O)OCC(=O)Nc2ccc([N+](=O)[O-])cc2C(F)(F)F)cc1 | -2.5 | 0.637 | x | x | x | x | x | 7.1% | -0.8
CC(C)(C)OC(=O)N1CCC[C@H]1c1nnc(SCc2ccccc2Cl)o1 | 0.4 | 0.799 | x | x | x | x | x | -1.0% | -7.5
COc1ccc(C(=O)/C=C/c2ccc(O)cc2)c(O)c1CC=C(C)C | 2.5 | x | 6.4 | 20.4 | -11.4 | 8.0 | i | -0.9% | 20.4
c1cc2nnnn2nc1N1CCCCC1 | -4.9 | 0.693 | 10.9 | 9.9 | 4.5 | -0.7 | i | 2.9% | -3.3
Cc1c(CN2CCCC(C(=O)Nc3cccc(-n4cccn4)c3)C2)cnn1C (stereo not drawn) | -2.1 | 0.738 | 13.1 | 14.1 | 6.3 | 0.2 | i | -3.6% | 0.8
CCN1CCN(Cc2c(O)ccc3c2O/C(=C\c2ccccc2)C3=O)CC1 | -0.4 | 0.707 | 2.2 | 2.3 | -4.8 | -0.7 | i | -1.5% | 51.8
CNC(=S)N/N=C(\C)c1ccc(Cl)s1 | -0.1 | x | 3.1 | 8.4 | -3.5 | 6.2 | i | -11.6% | 6.1
COc1cccc(NC(=O)N[C@@H]2CC[C@H](CC(=O)N3CCN(C)CC3)O[C@@H]2CO)c1 | x | x | 3.4 | 1.0 | -0.4 | -1.6 | i | x | x
Cc1ccc(N(CC(O)CN2CCCC2)S(=O)(=O)c2ccccc2)cc1 (stereo not drawn) | 0.1 | 0.673 | -3.1 | -1.6 | 3.7 | 9.8 | i | 7.6% | 2.6
N/C(=N\OC(=O)COc1ccc([N+](=O)[O-])cc1)c1cccnc1 | 0.9 | x | 13.4 | 14.0 | -0.4 | -1.3 | i | 70.3% | -9.1
CCCn1nnnc1SCC(=O)N1CCCCC1 | -0.5 | 0.705 | 8.8 | 11.2 | -0.6 | -2.7 | i | x | 0.0
C[C@@H]1CN([C@@H](C)CO)C(=O)Cc2cc(NC(=O)Nc3ccccc3)ccc2O[C@@H]1CN(C)C(=O)Nc1ccccc1 | x | x | -6.9 | -14.8 | -0.4 | -11.6 | i | x | x
O=C(NC(=S)NCCCN1CCOCC1)c1ccc(Br)cc1 | 3.9 | 0.631 | 6.2 | 6.9 | 0.8 | -3.3 | i | x | 24.2
C[C@H]1CN([C@@H](C)CO)C(=O)c2cccc(NS(C)(=O)=O)c2O[C@@H]1CN(C)Cc1ccc(Cl)c(Cl)c1 | x | x | -10.0 | -7.7 | 0.0 | 0.9 | i | x | x
CC1(C)CC(=O)C2=C(C1)N(CCN1CCOCC1)C1=C(C(=O)CC(C)(C)C1)C2c1ccc(Cl)cc1 | 1.4 | 0.706 | 3.9 | 2.1 | 1.2 | -11.3 | i | 30.5% | -2.4
Cc1ccc(S(=O)(=O)N2CCN(C(=O)c3ccccn3)CC2)c(C)c1 | -1.8 | 0.668 | 4.3 | 1.3 | -2.3 | -0.4 | i | -0.5% | -1.8
CCC(C)NC(=O)Nc1ccc(F)c(Cl)c1 (stereo not drawn) | 2.5 | 0.656 | -2.3 | -13.0 | -1.5 | -2.5 | i | 20.1% | -4.6

Reprinted at random: two compounds from above.
SMILES | HNF4A DNA FP | E coli growth | rRNA inh HTS | rRNA inh HTS OD600 | rRNA inh HTS RFP | AF4-AF9 inh | FGF22 binding | Vif TR-FRET | ALR H2O2 inh
COc1cccc(NC(=O)N[C@@H]2CC[C@H](CC(=O)N3CCN(C)CC3)O[C@@H]2CO)c1 | x | x | 3.4 | 1.0 | -0.4 | -1.6 | i | x | x
CCC(C)NC(=O)Nc1ccc(F)c(Cl)c1 (stereo not drawn) | 2.5 | 0.656 | -2.3 | -13.0 | -1.5 | -2.5 | i | 20.1% | -4.6

(further entries)
SMILES | HNF4A DNA FP | E coli growth | rRNA inh HTS | rRNA inh HTS OD600 | rRNA inh HTS RFP | AF4-AF9 inh | FGF22 binding | Vif TR-FRET | ALR H2O2 inh
CCOC(=O)CN1C(=O)C2Cc3ccccc3CN2C1=S (stereo not drawn) | -3.7 | x | x | x | x | x | x | 28.2% | 7.2
O=C1OC(c2ccccc2)(N(Nc2ccccc2)c2ccccc2)c2ccccc21 (stereo not drawn) | -2.9 | x | 1.2 | -5.2 | -4.2 | 2.9 | i | -1.7% | x
CN(Cc1ccccc1)Cc1nc2c([nH]1)c(=O)[nH]c(=O)n2C | 1.5 | 0.625 | x | x | x | x | x | 4.4% | 0.7
CC1CN(CCCCSc2ccc(Cl)cc2)CC(C)O1 (stereo not drawn) | 3.3 | 0.597 | -17.6 | -12.0 | -4.4 | 4.0 | i | x | 9.3
Cc1ccc(C)c(OCC(=O)Nc2ccccc2N2CCCC2)c1 | -0.5 | 0.695 | -11.4 | -6.0 | 3.0 | 7.9 | i | 10.2% | 0.3
CCC(=O)Nc1ccc(-c2nnc(SCC(=O)NCC3CCCO3)n2C)cc1 (stereo not drawn) | 2.0 | 0.674 | x | x | x | x | x | x | -2.9
O=C(NCCNc1cc(Cl)ccc1[N+](=O)[O-])c1ccco1 | -1.6 | 0.636 | -14.1 | -9.5 | 3.0 | 6.1 | i | x | 1.7
Cc1ccc(NC(=O)C2CCCC2)cc1S(=O)(=O)N1CCOCC1 | -0.6 | 0.676 | 2.4 | 7.0 | 3.0 | 1.4 | i | x | x
C/C=C/c1ccc2c(c1)O[C@H](CN(C)Cc1ccc(F)cc1)[C@H](C)CN([C@@H](C)CO)S2(=O)=O | x | x | -35.6 | -66.8 | -5.3 | 12.2 | i | x | x
Cc1nc2cc(S(=O)(=O)N3CCC(C(=O)O)CC3)ccc2n1C1CCCC1 | -2.5 | 0.745 | x | x | x | x | x | 30.4% | x
Cc1noc(C)c1S(=O)(=O)Nc1ccc2c(c1)CC(=O)N([C@H](C)CO)C[C@@H](C)[C@@H](CN(C)S(=O)(=O)c1ccc(F)cc1)O2 | x | x | -0.8 | -4.4 | 1.1 | 1.0 | i | x | x
O=C(/C=C/c1ccccc1)N1CCC(N2CCC(C(=O)N3CCOCC3)CC2)CC1 | 2.1 | 0.68 | 6.5 | 9.6 | 0.1 | 0.9 | i | -6.1% | 3.0
CN(C)CC(=O)Nc1ccc2c(c1)[C@@H]1C[C@H](CC(=O)NC3CCCC3)O[C@@H](CO)[C@@H]1O2 | x | x | -1.6 | 2.1 | 3.8 | 1.2 | i | x | x
CCc1cnc(N2[C@@H](C#N)[C@@H](c3ccccc3C3=CCCC3)[C@@H]2CO)s1 | x | x | -11.2 | -9.4 | 1.4 | -1.0 | i | x | x
Cc1nc(-c2ccc(NC(=O)/C=C\C(=O)O)cc2)cs1 | -2.8 | 0.661 | -8.9 | -6.6 | 0.4 | 1.0 | i | 11.0% | 9.4
CC(=O)N1CCN(C(=O)c2cc(-c3cccc4ccccc34)nc3ccccc23)CC1 | -4.6 | 0.689 | 3.2 | -3.9 | 1.5 | 2.3 | i | x | -1.5
COc1ccc(-c2c(-c3ccc(OC)c(C)c3O)n[nH]c2C)cc1 | 1.4 | 0.69 | -31.8 | -57.7 | 25.5 | 0.2 | i | x | 1.8
COc1ccccc1OCC(=O)NCCSCc1ccccc1Cl | -0.3 | 0.7 | x | x | x | x | x | x | -22.3
O=C(NCC(c1ccco1)N1CCCC1)c1cc2ccccc2s1 (stereo not drawn) | 2.6 | 0.637 | -3.1 | -1.1 | -3.1 | 4.4 | i | -8.3% | -6.4
O=C1/C(=C/c2ccccc2)N=C(N2CCOCC2)N1c1cccc(Cl)c1 | 2.5 | 0.652 | 0.8 | -8.8 | -13.1 | 1.7 | x | -12.0% | -3.5
CCC(=O)N[C@@H]1CC[C@H](CCNC(=O)Nc2ccc(F)cc2)O[C@@H]1CO | x | x | -4.6 | -17.4 | 0.3 | 5.7 | i | x | x
O=C(Nc1ccccc1Cl)N1C[C@H]2[C@@H](c3ccccc31)[C@H](CO)N2C(=O)c1cccnc1 | x | x | 4.9 | 6.6 | 3.3 | -0.8 | i | x | x
CC1(C)CC(=O)CC2(C1)NCC(c1ccccc1)c1c2[nH]c2ccccc12 (stereo not drawn) | 3.4 | 0.672 | -39.8 | -63.5 | -3.6 | 7.2 | i | x | x
O=C(Cc1cccs1)N[C@@H]1c2ccccc2CC[C@@H]1OCc1ccccc1 | 4.2 | 0.706 | 12.5 | 21.0 | 4.7 | -0.3 | i | -1.1% | x
C[C@@H]1CN([C@H](C)CO)C(=O)c2cc(Br)cnc2O[C@@H]1CN(C)C(=O)C1CCOCC1 | -3.8 | x | 3.1&2.9 | 0.2&4.0 | -0.4&-3.1 | -3.2&-0.7&-0.8 | i | x | x
CCOC(=O)C1CCCN(C(=O)c2cc(-c3ccc(C)cc3)on2)C1 (stereo not drawn) | 1.0 | 0.7 | x | x | x | x | x | 3.5% | -2.7
O=C(CNC(=O)c1ccccc1)Oc1ccc([N+](=O)[O-])cc1 | 2.1 | 0.606 | 16.2 | 6.7 | 1.2 | -5.9 | i | -4.6% | -19.8
